High-throughput results (PubChem)
TRPML1 ag = human mucolipin-1 channel agonism; Q9GZU1; TRPML1-expressing cells, Ca2+ dye fluorescence, FDSS; host cell line not named in the record; reference of the full effect not given here; activation, % (concentration not given with the values); 410,000 tested, 0.12% active; AID 624414; in the data active = activation above about 50%; inconclusive = about 30% to 50%; inactive = below about 30%; further: 0% is about no effect; the text of the record puts the active cut at 80%
Target sequence (Q9GZU1 whole entry, looked up): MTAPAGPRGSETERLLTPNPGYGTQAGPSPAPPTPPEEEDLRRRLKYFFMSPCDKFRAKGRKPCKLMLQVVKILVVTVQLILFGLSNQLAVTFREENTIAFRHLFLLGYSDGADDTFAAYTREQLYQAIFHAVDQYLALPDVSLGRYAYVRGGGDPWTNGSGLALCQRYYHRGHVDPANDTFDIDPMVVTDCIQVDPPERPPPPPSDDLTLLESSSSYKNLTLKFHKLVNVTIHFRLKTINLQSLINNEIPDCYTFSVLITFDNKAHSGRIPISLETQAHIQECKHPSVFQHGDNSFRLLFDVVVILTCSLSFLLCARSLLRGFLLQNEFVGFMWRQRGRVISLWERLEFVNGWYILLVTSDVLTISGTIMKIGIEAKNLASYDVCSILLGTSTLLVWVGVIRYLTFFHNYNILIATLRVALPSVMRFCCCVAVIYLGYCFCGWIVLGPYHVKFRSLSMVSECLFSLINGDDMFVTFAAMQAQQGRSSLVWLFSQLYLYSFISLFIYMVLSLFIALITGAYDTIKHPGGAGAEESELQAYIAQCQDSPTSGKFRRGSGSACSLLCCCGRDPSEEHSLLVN
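Tetracycline-induced TRPML1-DL cells are seeded and incubated overnight before loading with a no-wash Ca2+ dye and quencher. Agonist activity is taken from the 110 s fluorescence read following compound pin-transfer on an FDSS, before EC80 54-4 challenge.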
PINK1 modulator = modulators of PINK1 expression. PINK1 immunofluorescence, high-content cytometry, 24 h. Potency, µM (highest dose often 76.6 µM), for inactives: at the top dose activation (PINK1 increase), actives largely listed as activators. 410,000 tested, 0.2% active; active = well fitted activation curve with a large enough effect; inconclusive = small, poorly fitted or top-dose-only effect; inactive = flat fitted curve, though single readings scatter; cell line not stated here;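 further: potency means the concentration at half of the fitted maximal effect; % of control where 0% means no effect; nearly all actives have a fitted effect of over 65% in size; a mitochondrial uncoupler was the plate control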
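Fluorescence from anti-PINK1 antibody, together with nuclear and cell stains, was scanned on a laser-scanning cytometer. Before staining, stable-line cells were incubated 24 hours with compounds at 5 concentrations; primary antibody 12 h at 10 degrees C.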
Six1-Eya2 blk = blocks human Six1 binding to Eya2; activity change, % (concentration not given with the values); AlphaScreen GST-Six1/His-Eya2 binding, biochemical; active compounds read low; control for the full effect not named in the record; 360,000 tested, 0.56% active; AID 651725; Q15475+O00167; in the data active = activity change below about -65%; inconclusive = about -30% to -65%; inactive = above about -30%; further: on the % scale 0 is the no-effect control and ±100 the full control effect
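Six1/Eya2 binding was read as AlphaScreen signal after compounds were pinned into GST-Six1 plus His-tagged Eya2 (5X stock 250/500 nM) in pH 8.0 Tris/NaCl/TCEP buffer, beads added, then incubated 1 h, 37 C, dark.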
D2 potentiator = human D2 receptor positive allosteric modulation; DiscoveRx D2 beta-arrestin cells, luminescence, 90 min; 100% = 57 uM dopamine signal; potentiation, % (no concentration beside the values); 360,000 tested, 0.23% active; active = potentiation of 50% or more; inconclusive = 30% to 50%; inactive = 30% or less;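 further: compound concentration not given in the record; tested on top of an EC20 dose of dopamine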
Target sequence (P14416 whole entry, looked up): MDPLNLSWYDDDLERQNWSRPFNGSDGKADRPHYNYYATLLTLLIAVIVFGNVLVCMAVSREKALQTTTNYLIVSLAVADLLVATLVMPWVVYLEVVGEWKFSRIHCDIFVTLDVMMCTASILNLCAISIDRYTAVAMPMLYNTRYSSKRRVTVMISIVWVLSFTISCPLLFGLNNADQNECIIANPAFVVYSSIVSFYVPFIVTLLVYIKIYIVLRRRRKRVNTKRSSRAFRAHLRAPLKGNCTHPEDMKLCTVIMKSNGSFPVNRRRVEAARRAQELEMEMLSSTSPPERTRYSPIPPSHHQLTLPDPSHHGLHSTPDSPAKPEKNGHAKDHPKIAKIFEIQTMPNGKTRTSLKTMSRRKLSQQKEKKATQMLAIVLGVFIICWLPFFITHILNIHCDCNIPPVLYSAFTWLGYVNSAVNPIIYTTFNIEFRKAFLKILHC
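PathHunter D2 cells, attached overnight at 37 deg C, received compound in DMSO plus dopamine at EC20 (50 nM final) for 90 min at 37 deg C. Beta-arrestin recruitment was read as luminescence after 1 h with detection reagent at ambient temperature.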
D2 agonist = agonists of human D2 dopamine receptor (beta-arrestin); DiscoveRx PathHunter D2 beta-arrestin, luminescence, 90 min; 100% = 57 uM dopamine signal; activation, % (test concentration not listed); 360,000 tested, 0.084% active; AID 624465; in the data active = activation above about 40%; inconclusive = about 15% to 40%; inactive = below about 15%; further: compound concentration not given in the record; the text of the record calls up to 30% inactive
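Agonist mode: compounds alone added to overnight-plated D2 PathHunter cells for 90 min at 37 C, with 57 uM final dopamine (EC100) defining full response. Beta-arrestin recruitment detected by chemiluminescent reagent, read after 1 h at ambient temperature.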
TRPML1 blocker = human mucolipin-1 channel inhibition; activity change, negative = inhibition, % (no concentration beside the values); TRPML1-inducible cells, Ca2+ dye fluorescence, FDSS; active compounds read low; inhibition of EC80 agonist-evoked calcium signal; AID 624415; 390,000 tested, 0.02% active; Q9GZU1; in the data active means activity change below about -50%; inconclusive means about -30% to -50%; inactive means above about -30%;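 further: stimulus is agonist 54-4 at its EC80 concentration; on the % scale 0 is the no-effect control and ±100 the full control effect; compound concentration not given in the record; the text of the record puts the active cut at -80%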
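Tet-induced TRPML1-DL cells loaded with Ca8 no-wash calcium dye were read kinetically on FDSS. Compound addition was followed by EC80 agonist 54-4 (4 uM final); inhibition was read over 110 s.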
Starred values were filed as active, the others as inactive; [ ] = another dose, or the depositor's remark.

Screening Cc1ccc(C(O)c2ncc(-c3ccc(C(F)(F)F)cc3)[nH]2)cc1F (configuration not stated) returned TRPML1 ag 0.7, PINK1 modulator 17%, Six1-Eya2 blk -10, D2 potentiator -7, D2 agonist 0.8 and TRPML1 blocker 32.
`CCn1cc(C(=O)N2CCCC2)c(=O)c2cc(S(=O)(=O)N3CCC(C)CC3)ccc21` gave TRPML1 ag 0.2, PINK1 modulator 0.2%, Six1-Eya2 blk 2, D2 potentiator -7, D2 agonist -1.8 and TRPML1 blocker -1.
`CC(=O)NCCSCCNC(C)=O` gave TRPML1 ag 0.6, PINK1 modulator 1.5%, Six1-Eya2 blk 26, D2 potentiator -4, D2 agonist -6.1 and TRPML1 blocker -11.
Screening O=C(NCCc1ccccc1)C1CCN(C(=O)N2CCOc3ccccc32)CC1 returned TRPML1 ag 0.3, PINK1 modulator 0.6%, Six1-Eya2 blk 0, D2 potentiator -5, D2 agonist -3.8 and TRPML1 blocker 24.
`CCOc1cc(C(=O)NN=C2CCCC2)cc(OCC)c1OCC` gave TRPML1 ag 0.1, PINK1 modulator 10%, Six1-Eya2 blk -9, D2 potentiator -16, D2 agonist -1.4 and TRPML1 blocker 2.
Screening Cc1ccc(CN2CCN(Cc3ccccc3)C(CCO)C2)s1 (configuration not stated) returned TRPML1 ag 0.1, PINK1 modulator -0.5%, Six1-Eya2 blk -3, D2 potentiator -7, D2 agonist -1.9 and TRPML1 blocker 10.
O=c1c2ccccc2nc2n1CCS2 was read as TRPML1 ag 0.9, PINK1 modulator 1.2%[38.3 µM], Six1-Eya2 blk -1, D2 potentiator -9, D2 agonist -2.4 and TRPML1 blocker 11.
`CC(/C=N/NC(=O)c1cc(-c2cccn2C)n[nH]1)=C\c1ccccc1` gave TRPML1 ag -0.4, PINK1 modulator 1.8%, Six1-Eya2 blk -9, D2 potentiator -13, D2 agonist 4.2 and TRPML1 blocker 8.
Screening O=C(C1CCN(S(=O)(=O)N2CCC3(CC2)OCCO3)CC1)N1CCN(Cc2ccccc2)CC1 returned TRPML1 ag 0.9, PINK1 modulator -1.5%[38.3 µM], Six1-Eya2 blk 8, D2 potentiator -12, D2 agonist 1.2 and TRPML1 blocker 17.
For O=C(NCCCn1cccn1)c1cc(COc2ccccc2)on1 the results were TRPML1 ag -1.1, PINK1 modulator -0.4%, Six1-Eya2 blk -7, D2 potentiator -13, D2 agonist -2.4 and TRPML1 blocker -7.
Screening CCCCOC(=O)c1cc(-c2ccc(/C=N/n3cnnc3)o2)ccc1Cl returned TRPML1 ag -0.9, PINK1 modulator 2.8%, Six1-Eya2 blk -20, D2 potentiator 6, D2 agonist -0.9 and TRPML1 blocker -5.
CCOc1ccc(NC(=O)CN(C)C(=O)C2CCN(c3ncnc4sc(C)c(C)c34)CC2)cc1OCC was read as TRPML1 ag 2.2, PINK1 modulator -1.6%, Six1-Eya2 blk inconclusive, D2 potentiator -1, D2 agonist -3.5 and TRPML1 blocker -6.

Random excerpt: 3 records from the list.
`CC(/C=N/NC(=O)c1cc(-c2cccn2C)n[nH]1)=C\c1ccccc1` gave TRPML1 ag -0.4, PINK1 modulator 1.8%, Six1-Eya2 blk -9, D2 potentiator -13, D2 agonist 4.2 and TRPML1 blocker 8.
`CCOc1cc(C(=O)NN=C2CCCC2)cc(OCC)c1OCC` gave TRPML1 ag 0.1, PINK1 modulator 10%, Six1-Eya2 blk -9, D2 potentiator -16, D2 agonist -1.4 and TRPML1 blocker 2.
Screening O=C(NCCc1ccccc1)C1CCN(C(=O)N2CCOc3ccccc32)CC1 returned TRPML1 ag 0.3, PINK1 modulator 0.6%, Six1-Eya2 blk 0, D2 potentiator -5, D2 agonist -3.8 and TRPML1 blocker 24.

More records:
COc1ccc(OC)c(NC(=O)Nc2nc(C(N)c3ccccc3Cl)cs2)c1 (configuration not stated) was read as TRPML1 ag 1.0, PINK1 modulator 11%, Six1-Eya2 blk -25, D2 potentiator -10 and D2 agonist 8.1.
Screening CC1(C)C(c2ccccc2)=NC(c2ccccc2)N1O (configuration not stated) returned TRPML1 ag 0.3, PINK1 modulator -3.2%, Six1-Eya2 blk 2, D2 potentiator -18, D2 agonist -5.3 and TRPML1 blocker -12.
CCOC(=O)c1cccc(NS(=O)(=O)c2c(C(=O)N3CCCCCC3)c(C)n(C)c2C)c1 was read as TRPML1 ag 1.0, PINK1 modulator 1.4%, Six1-Eya2 blk 0, D2 potentiator 2, D2 agonist 11 and TRPML1 blocker -24.
`Cc1ccc(NC(=O)CN(C)C(=O)/C=C/c2ccc3c(c2)OCO3)cc1` gave TRPML1 ag 0.1, PINK1 modulator -0.7%, Six1-Eya2 blk 3, D2 potentiator -4, D2 agonist -6.5 and TRPML1 blocker 10.
Screening C/C(N)=C(/C#N)C(=O)CSc1nc2scc(-c3ccccc3)c2c(=O)n1C returned TRPML1 ag 0.4, PINK1 modulator 0.6%, Six1-Eya2 blk -3, D2 potentiator 6, D2 agonist -0.8 and TRPML1 blocker -17.
Screening Cc1ccc(C(=O)NCCCN2CCOCC2)c(Cl)c1 returned TRPML1 ag -0.8, PINK1 modulator 1.4%, Six1-Eya2 blk -1, D2 potentiator -5, D2 agonist -1.6 and TRPML1 blocker 10.
`COc1cccc(C(=O)N2N=C(c3ccccc3)CC2(O)C(F)(F)F)c1` (configuration not stated) gave TRPML1 ag 0.9, PINK1 modulator 1.8%, Six1-Eya2 blk 5, D2 potentiator -14, D2 agonist -4.6 and TRPML1 blocker -5.
Screening COc1ccc(C(=O)Oc2cc3c4c(c2)C(C)=CC(C)(C)N4C(=O)C3=O)cc1OC returned TRPML1 ag -0.2, PINK1 modulator 7.0%, Six1-Eya2 blk 3, D2 potentiator -23, D2 agonist -1.7 and TRPML1 blocker -5.
`COC(=O)c1c(NC(=O)CCCC(=O)O)sc2c1CCCCC2` gave TRPML1 ag -0.6, PINK1 modulator -0.2%, Six1-Eya2 blk -21, D2 potentiator -4, D2 agonist -4.9 and TRPML1 blocker -10.
`CC1(C)C=Cc2c(c3ccccc3[nH]c2=O)O1` gave TRPML1 ag 1.4, PINK1 modulator 0.2%, Six1-Eya2 blk -7, D2 potentiator -11, D2 agonist -1.8 and TRPML1 blocker 15.
Screening CN1C(=O)C2C3c4ccccc4C(c4ccccc43)[C@@H]2C1=O (some centres not stated) returned TRPML1 ag 0.1, PINK1 modulator 1.9%, Six1-Eya2 blk 1, D2 potentiator -3, D2 agonist -1.2 and TRPML1 blocker 10.
CCOC1CCc2c(C)nc(N)nc2S1 (configuration not stated) was read as TRPML1 ag -0.2, PINK1 modulator 0.7%, Six1-Eya2 blk 1, D2 potentiator -17, D2 agonist -1.9 and TRPML1 blocker -5.
`O=C(CN(Cc1ccccc1)S(=O)(=O)c1ccc(S(=O)(=O)N2CCOCC2)cc1)Nc1ccccc1` gave TRPML1 ag 0.1, PINK1 modulator inconclusive, Six1-Eya2 blk 4, D2 potentiator -8, D2 agonist -6.7 and TRPML1 blocker 5.
For O=C(NCC1CCCCC1)c1cccnc1 the results were TRPML1 ag -0.1, PINK1 modulator -0.4%, Six1-Eya2 blk 4, D2 potentiator -4, D2 agonist 1.9 and TRPML1 blocker 8.
Screening CCN(CC)C(=O)COc1ccc(/C=N/NC(=O)c2cc(-c3ccccc3OC)nc3ccccc23)cc1OC returned TRPML1 ag 1.2, PINK1 modulator -0.8%, Six1-Eya2 blk -7, D2 potentiator -7, D2 agonist 0.0 and TRPML1 blocker 2.
`N#CC12C(N)=NC3(OCCO3)C1(C#N)C1=C(CCC1)NC2c1ccccc1` (configuration not stated) gave TRPML1 ag -0.5, PINK1 modulator -3.0%, Six1-Eya2 blk -5, D2 potentiator 13, D2 agonist -2.1 and TRPML1 blocker -13.
`O=C(CN1C(=O)NC2(CCCCC2)C1=O)Nc1cccc(Cl)c1Cl` gave TRPML1 ag -0.8, PINK1 modulator 1.0%, Six1-Eya2 blk -2, D2 potentiator 3, D2 agonist 0.1 and TRPML1 blocker -6.
Screening COc1ccc(-c2ccc(NS(=O)(=O)c3ccccc3Cl)cc2)nn1 returned TRPML1 ag 0.1, PINK1 modulator 8.9% and TRPML1 blocker -8.
COC(=O)CSc1nnc(CNC(=O)c2cc(OC)cc(OC)c2)n1-c1ccc(F)cc1 was read as TRPML1 ag -0.4, PINK1 modulator -0.1%, Six1-Eya2 blk 3, D2 potentiator -6, D2 agonist -3.4 and TRPML1 blocker -7.
Screening Cc1ccc2[nH]c3c(c2c1)CCN(C)C3 returned TRPML1 ag 0.7, PINK1 modulator 0.2%, Six1-Eya2 blk -1, D2 potentiator -5, D2 agonist -4.5 and TRPML1 blocker 4.
Screening COC(=O)C1=C(CS(=O)(=O)c2cc(OC)ccc2OC)NC(=O)NC1c1ccc(O)c(OC)c1 (configuration not stated) returned TRPML1 ag -0.5, PINK1 modulator -1.1%, Six1-Eya2 blk 5, D2 potentiator -9, D2 agonist -0.9 and TRPML1 blocker -8.
CCOC(=O)c1ccccc1NC(=O)Cn1c(=O)n(-c2cccc(C)c2)c(=O)c2c1c1cc(C)ccc1n2C was read as TRPML1 ag -0.4, PINK1 modulator 0.8% and TRPML1 blocker 62.
For O=C1NC[C@@H](CCCCN2C[C@H](Cc3ccc(O)cc3)N(CCc3ccccc3)C(=O)C2=O)N(CCc2ccc(O)cc2)C1=O the results were TRPML1 ag -0.2, PINK1 modulator 0.5% and Six1-Eya2 blk -10.
`O=C(CSc1n[nH]c(-c2ccccc2Br)n1)NCCN1C(=O)CSC1=O` gave TRPML1 ag 1.6, PINK1 modulator 0.6%, Six1-Eya2 blk 0, D2 potentiator 1, D2 agonist -0.2 and TRPML1 blocker 6.
Screening COc1ccccc1/C=N/NC(=O)CC(=O)NCc1ccccc1 returned TRPML1 ag -0.6, PINK1 modulator -0.6%, Six1-Eya2 blk 3, D2 potentiator -3, D2 agonist -0.6 and TRPML1 blocker -12.
For Cc1c(C)n(CC(O)CN2CCCCC2)c2ccccc12 (configuration not stated) the results were TRPML1 ag 0.6, PINK1 modulator 0.2%, Six1-Eya2 blk -15, D2 potentiator -24, D2 agonist 0.5 and TRPML1 blocker -10.
For CCc1nnc(NC(=O)CSc2nc3c([nH]c4ccccc43)c(=O)n2-c2ccc(C)cc2)s1 the results were TRPML1 ag 1.3, PINK1 modulator -3.3% and TRPML1 blocker 36.
For S=C(NCc1ccncc1)Nc1ccc(Br)cc1 the results were TRPML1 ag 0.2, PINK1 modulator 2.4%, Six1-Eya2 blk -3, D2 potentiator -17, D2 agonist 0.3 and TRPML1 blocker 0.
`COc1ccccc1NCC(O)Cn1c2ccccc2c2ccccc21` (configuration not stated) gave TRPML1 ag 1.4, PINK1 modulator 0.2%, Six1-Eya2 blk inconclusive, D2 potentiator 16, D2 agonist 3.3 and TRPML1 blocker 10.
Screening CC(=O)Oc1cccc(-c2nc3ccccc3c(=O)o2)c1 returned TRPML1 ag 2.7, PINK1 modulator 0.2%, Six1-Eya2 blk -3, D2 potentiator -14, D2 agonist 4.3 and TRPML1 blocker 18.
For O=S(=O)(Nc1cccc(CCc2ccccn2)c1)c1ccc(Cl)cc1 the results were TRPML1 ag 0.9, PINK1 modulator -0.7%, Six1-Eya2 blk 1, D2 potentiator -18, D2 agonist -1.8 and TRPML1 blocker 35.
